Sa growth 42C: S. aureus growth inhibition | hit rate 0.53% among 170,000 | relative growth, % (test concentration not listed) | S. aureus RN4220 growth, OD600, 20 h, 42 °C; active compounds read low;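 active = growth at 42 °C up to 50% and 20 or more points under that at 30 °C, or under 10% at both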;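 note: 300 nL library stock went into each well; scaled to the means of positive and negative controls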
GIV-Gai inh: GIV-Galpha-i interaction inhibition; AID 1224905; Galpha-i3/FITC-GIV peptide fluorescence polarization, 90 min; active compounds read low; scaled: aluminum fluoride 0%, vehicle 100%; hit rate 0.42% among 210,000; percent of control (FP), % (no concentration beside the values);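 active = replicate mean at 85% of control or lower, very high polarization wells dropped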;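 note: wells of about 15 µL received 100 nL stock; the first replicate is given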
Target sequence (P08753 whole entry, looked up): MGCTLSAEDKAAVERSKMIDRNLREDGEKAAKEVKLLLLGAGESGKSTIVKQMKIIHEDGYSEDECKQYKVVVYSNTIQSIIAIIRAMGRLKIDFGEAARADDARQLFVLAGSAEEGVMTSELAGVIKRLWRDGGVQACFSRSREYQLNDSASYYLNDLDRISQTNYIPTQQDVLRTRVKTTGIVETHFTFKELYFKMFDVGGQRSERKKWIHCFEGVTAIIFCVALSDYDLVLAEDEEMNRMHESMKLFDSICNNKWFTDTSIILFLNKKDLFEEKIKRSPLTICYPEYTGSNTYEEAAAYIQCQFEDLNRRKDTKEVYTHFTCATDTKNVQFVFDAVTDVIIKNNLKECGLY
HCMV NEC inh: inhibitors of HCMV UL50-UL53 nuclear egress complex interaction; hit rate 0.15% among 190,000; HTRF UL50-UL53 interaction, normalized percent inhibition; inhibition, % (no concentration beside the values); AID 1918969;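 active = both replicates at 50% or more, plus weaker picks with an unusually low signal ratio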;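 note: stock transfer was 100 nL into about 20 µL; 0% = negative control wells and 100% = wells with untagged competitor protein; inactives centre near -12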
Sa growth 42C second temp: further read-out of Sa growth 42C, marked with its call; relative growth, %; measured here: growth at 30 °C;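 optical density after 20 h as mean of two plates; 100% = untreated growth and lower means inhibition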
Starred values were filed as active, the others as inactive; x = no result given; & = joins results of further samples.

Structure,Sa growth 42C,Sa growth 42C second temp,GIV-Gai inh,HCMV NEC inh
O=C(c1ccco1)N1CCN(C(=O)c2ccc(COc3ccc4c(c3)CCC4)o2)CC1,87,93,101,4
O=C(CSc1nccn1C1CCCC1)Nc1cc(C(F)(F)F)ccc1Cl,133,96,111,x
O=C1/C(=C/c2ccc3ccccc3c2)COc2ccccc21,105,87,104,-2
NNC(=S)Nc1ccc2c(c1)OCO2,83,73,103,-29
COc1ccc2oc(=O)c(-c3csc(/C(C#N)=C/c4ccc(F)cc4)n3)cc2c1,102,93,105,1
Cc1cc(OC(=O)c2cccs2)cc(OC(=O)c2cccs2)c1,109,98,99,2
CCSc1nn(CC(=O)Nc2ccccc2)c(N)c1S(=O)(=O)c1ccc(Cl)cc1,x,x,102,-16
Cc1cccc(N(C)S(=O)(=O)c2nnc(NC(=O)C(C)(C)C)s2)c1,113,80,106,1
Cc1cccc2c1-c1sc(C(=O)NCCCN3CCC(C)CC3)cc1CO2,x,x,98,-64
Cc1c(Cl)cccc1-n1ncc(C(=O)NCc2cccs2)c1C1CCN(C(=O)OC(C)(C)C)CC1,91,85,102,x
O=C(O)CCCCCN1C(=O)C2C3C=CC(C3)C2C1=O (stereo unspecified),95,94,x,-25
O=C(CSC1=Nc2ccccc2CS1)c1ccc[nH]1,102,95,x,5
O=C(O)CCC(=O)Nc1ccccc1C#Cc1ccc(Br)cc1,60,61,x,-6
COc1cc(OC)cc(C(=O)Nc2cccc(-c3nc4cc(C)cc(C)c4o3)c2C)c1,91,86,97,-14
CCOC(=O)c1oc2cccc(OC(C)=O)c2c1C,x,x,102,-11
COc1ccc(S(=O)(=O)N2CCN(C(=O)c3ccco3)CC2)cc1OC,94,98,100,5
CCOC(=O)C1=C(CC)Nc2ccccc2N=C1NC(=O)C1CCCO1 (stereo unspecified),100,90,x,-3
CN1CC(c2nc3ccccc3[nH]2)CC1=O (stereo unspecified),99,87,103,x
COC(=O)Cn1cnc2c(cnn2-c2ccccc2)c1=O,101,82,103,6
CCC1CCCCN1C(=O)CSc1nc2c(c(=O)[nH]1)CCC2 (stereo unspecified),98,88,116,-14

Entries above with an NH in an aromatic ring (3):
Structure,Sa growth 42C,Sa growth 42C second temp,GIV-Gai inh,HCMV NEC inh
O=C(CSC1=Nc2ccccc2CS1)c1ccc[nH]1,102,95,x,5
CN1CC(c2nc3ccccc3[nH]2)CC1=O (stereo unspecified),99,87,103,x
CCC1CCCCN1C(=O)CSc1nc2c(c(=O)[nH]1)CCC2 (stereo unspecified),98,88,116,-14

(list continues)
Structure,Sa growth 42C,Sa growth 42C second temp,GIV-Gai inh,HCMV NEC inh
CC1CC(=O)CCN1C(=O)c1ccccc1 (stereo unspecified),108,82,99,-7
CCCc1cc(=O)[nH]c(SCc2nc(N)nc(Nc3ccccc3C)n2)n1,65,89,x,-31
O=C(COc1ccc(NC2=NS(=O)(=O)c3ccccc32)cc1)N1CCOCC1,x,x,102,-16
CSC1=N/C(=C\c2ccc(Cl)cc2)C(=O)N1CCOc1ccc(Cl)cc1,95,99,108,19
Cc1cccc(N2CCN(C(=O)CCn3c(=O)c4cccn4c4cccnc43)CC2C)c1 (stereo unspecified),85,44,100,x
Cc1cc(C)c(C)c(OCCCSC#N)c1,109,102,102,-10
CC1=NN(C(=O)c2cccc(Cl)c2)C(O)(c2ccc(Cl)cc2)C1 (stereo unspecified),x,x,111,8
CCc1ccccc1NC(=O)CCc1c(C)nc2cc(-c3ccccc3)nn2c1C,97,88,105,-34
COc1ccc(Cl)cc1NC(=O)CN1C(=O)C(C)(C)c2cc(S(=O)(=O)N3CCCCC3)ccc21,103,99,104,x
NS(=O)(=O)c1ccc(NC(=O)CCC2COc3ccccc3O2)cc1 (stereo unspecified),107,79,101,x
COc1cccc(CN(c2nc3nc(C)c(Cl)c(C)n3n2)S(=O)(=O)c2ccccc2)c1,x,x,105,-9
O=C(COC(=O)C12CC3CC(CC(O)(C3)C1)C2)Nc1cccc2nsnc12,88,93,x,-67
Nc1nonc1C(=O)N1CCCN(C(=O)Nc2ccc(Cl)cc2)CC1,x,x,96,-29
c1ccc2c(c1)CCN(c1nn3nnnc3c3ccccc13)C2,x,x,104,0
COc1cc(/C=C2/N=C(c3ccccc3)N(C)C2=O)cc(OC)c1OC,95,81,106,-36
CCOC(=O)c1ccc(N2C(=O)NC(C(F)(F)F)(C(F)(F)F)C3=C2CC(C)(C)CC3=O)cc1,96,96,104,x
COc1ccc(NC(=O)Nc2cc(C(=O)NCc3ccc(C)cc3)ccc2N2CCCC2)cc1,92,84,101,x
CCOc1ccc(S(=O)(=O)N(C)c2ccc(OCC(=O)N(C)C3CCN(C)CC3)cc2)cc1,97,94,x,-8
CS(=O)(=O)c1ccc(NC(=O)c2ccccc2-n2cnnn2)cc1,102,105,x,-3
CNC(=S)N/N=C(\C)c1ccc(N2CCCCCC2)cc1,75,86,x,-23

A second format for two compounds above.
The line under a structure holds: Sa growth 42C	Sa growth 42C second temp	GIV-Gai inh	HCMV NEC inh
> COc1ccc(NC(=O)Nc2cc(C(=O)NCc3ccc(C)cc3)ccc2N2CCCC2)cc1
 : 92	84	101	x
> CCOc1ccc(S(=O)(=O)N(C)c2ccc(OCC(=O)N(C)C3CCN(C)CC3)cc2)cc1
 : 97	94	x	-8

Next part
Structure,Sa growth 42C,Sa growth 42C second temp,GIV-Gai inh,HCMV NEC inh
O=C(CSc1nc2ccccc2o1)N=Nc1c(O)[nH]c2ccccc12,115,79,106,-22
O=C(OCc1ccco1)c1sc2ccccc2c1Cl,104,100,112,2
CCCCOCC1CC2(CC(C)(c3csc(N)n3)OC2=O)C(=O)O1 (stereo unspecified),98,97,101,-7
CCN1CCN(CCCNC(=O)Cn2nc(C)n3c(cc4c(OC)cccc43)c2=O)CC1,111,86,99,-35
O=C(NNc1ccc(OC(F)(F)F)cc1)C1CCCCC1,97,92,102,-19
Cc1cc(C)c(C)c(S(=O)(=O)NC(C)C)c1C,120,102,98,-40
CCC1CN(C(=O)NCc2ccccc2)c2ccccc2O1 (stereo unspecified),108,85,106,-8
Cc1cc(N/C=C(\C#N)S(=O)(=O)c2ccc(Cl)cc2)nc(C)n1,100,101,111,-4
Cc1ccc(S(=O)(=O)N2CC(=O)N(O)C2c2ccccc2)cc1 (stereo unspecified),161,93,x,-16
COC(=O)c1ccc(NC(=O)C2CC(=O)N(C)C(=Nc3ccc4c(c3)OCO4)S2)cc1 (stereo unspecified),x,x,107,0
CCn1nnc2cc(C(=O)OCC(=O)N(C)Cc3cccc(F)c3)ccc21,86,94,x,8
COCCN1Cc2cccc(C(=O)NCc3cccs3)c2C1=O,83,79,100,-15
COc1ccc(C(=O)NCCc2csc(-c3ccccc3)n2)cc1Cl,x,x,98,-16
Cc1cc(C)cc(CC(C(=O)Nc2ccccc2)C(C)C(=O)O)c1 (stereo unspecified),136,83,97,6
CCCOc1ccc(OCCSc2nc3ccccc3n2CC(=O)O)cc1,x,x,102,-16
N#Cc1c(N)c(C#N)c(-c2ccccc2)c2c1CCCC2,70,92,x,3
Cc1ccc(C2C(C#N)=C(SCC(=O)N3CCN(Cc4ccccc4)CC3)NC3=C2C(=O)CCC3)cc1 (stereo unspecified),97,75,107,-17
CCOc1ccc(NC(=O)N2CCN(C(=O)Cc3csc4ccccc34)CC2)cc1,x,x,98,2
O=C(OCC(=O)N1CCCc2ccccc21)c1ccccc1O,103,85,x,-12
OCCN(Cc1ccccc1)Cc1ccccc1O,96,102,99,0

Next part:
Structure,Sa growth 42C,Sa growth 42C second temp,GIV-Gai inh,HCMV NEC inh
Cc1noc(C)c1S(=O)(=O)N(CC(=O)N1CCCCCC1)c1ccc(C(C)C)cc1,82,98,101,1
CCN1c2cc(C)ccc2-n2cccc2C12CCN(C(=O)c1ccc3c(c1)OCO3)CC2,x,x,97,-17
CC(C)OC(=O)COc1ccc2c(=O)c(-c3ccc(Cl)cc3)coc2c1,106,99,105,0
OC(Cc1cccnc1)(c1ccccc1)c1ccccc1,98,95,103,-24
COc1cccc(NC(=O)c2cnn(-c3ccccc3)c2)c1,x,x,105,-9
CN(C)CCCSc1nc2ccccc2s1,140,90,x,-13
Cc1ccc(CN(Cc2ccco2)C(=S)NCC(=O)O)cc1,95,80,104,-20
CC(C)(O)C(=O)/C=C/c1ccccc1,111,82,x,-1
COC(=O)C12CCCC(C(=O)O)(CCC1)C2,109,93,x,2
CCc1cc2c(=O)c(-c3nc4ccccc4s3)c(C(F)(F)F)oc2cc1O,72,23,109,x
CCNC(=O)c1ccc(CSc2nc3cccnc3n2Cc2ccc(OC)cc2)cc1,84,80,100,x
O=C(CCSCc1ccc(Cl)cc1)NC1CCCC1,90,89,105,-2
Cc1ccccc1N1CCN(C2=NC(=O)/C(=C\c3cccs3)S2)CC1,77,92,97,-26
Cc1ccc(C)c(OCc2nc(C)c(C(=O)Nc3ccc4c(c3)OCO4)s2)c1,x,x,103,-2
COc1ccccc1CNC(=O)CSc1cc(=O)n(C)c2ccccc12,95,86,104,-32
O=C(COc1ccccc1)n1nc(-c2ccccc2)nc1NCc1cccs1,119,99,104,-17
COc1cccc(/C=C2\CC/C(=C\c3cccc(OC)c3)C2=O)c1,110,82,104,x
CCOc1ccc(-n2ccc(=O)c(C(=O)Nc3cccnc3)n2)cc1,x,x,105,-47
O=C(c1ccc(CN2C(=O)CCn3nc(-c4cccc(Cl)c4)cc32)cc1)N1CCCC1,x,x,105,-11
O=C(Cn1ncc2c3ccccc3n(Cc3ccc(F)cc3)c2c1=O)NCc1ccccn1,88,94,99,2

(more compounds)
Structure,Sa growth 42C,Sa growth 42C second temp,GIV-Gai inh,HCMV NEC inh
O=C(O)c1ccccc1Cc1nc2c(oc3ccccc32)c(=O)[nH]1,111,91,x,8
CC(=O)N1CCCSc2ccc(S(=O)(=O)N(CC(C)C)CC(C)C)cc21,x,x,98,-10
CC(C)(C)c1cc(Cl)cc(C(=O)c2ccccc2)c1,92,79,x,-4
Cc1c(C(=O)Nc2ccccc2)sc2nc(-c3cc4ccccc4oc3=O)[nH]c(=O)c12,85,92,102,2
COC1CCCCC1Nc1ccccc1 (stereo unspecified),126,120,98,0
c1ccc(OCCn2c(CN3CCCCC3)nc3ccccc32)cc1,73,54,104,-10
Cc1cc(C)n(CCOc2ccc(Br)cc2)n1,118,103,101,6
O=C(NC1CCCCC1)c1ccc(CN2C(=O)CSc3ncccc32)cc1,x,x,102,0
Cn1nc(-c2ccc(C(N)=O)cc2)c2ccccc2c1=O,86,80,105,x
O=C(CCSCc1cnn(-c2ccccc2)c1-n1cccc1)NC1CCCC1,113,74,103,x
O=C1CC(c2ccc(Cl)cc2)Cc2nc(NCC3CCCO3)ncc21 (stereo unspecified),x,x,96,-12
Cc1ccc2c(c1)N(C(=O)CCC(=O)Nc1ccc(F)cc1F)CC(C)O2 (stereo unspecified),82,98,95,-5
CCCc1cc(NCC(C)C)n2nc(-c3cccnc3)nc2n1,x,x,109,-20
O=C1COc2ccc(C(=O)COC(=O)c3cccs3)cc2N1,77,75,x,-15
O=C(c1csc(S(=O)(=O)N2CCC(C(=O)N3CCOCC3)CC2)c1)N1CCOCC1,x,x,109,-12
COC(=O)CSc1nnc(CNc2ccc(Cl)cc2)n1Cc1ccccc1,128,51,104,-20
O=C(NCc1ccc(Cl)cc1)C(=O)Nc1ccc(Br)cc1,105,95,105,-32
Cc1ccc(C(=O)Nc2cnc3ccccn3c2=O)cc1,95&92,84&85,101&99,-89
O=C(OCC(=O)N1CCCCC1)c1ccccc1OCc1ccc(F)cc1,118,91,x,-34
Cc1c(NC(=O)c2ccc(Cl)cc2)cc(C(C)C)c(O)c1S(=O)(=O)c1ccccc1,84,87,102,-4
COC(CNC(=O)c1ccc(N2CCCC2=O)cc1)OC,98,89,106,-12
CN(Cc1ccccc1)S(=O)(=O)c1ccc(NC(=O)c2cc(=O)c3ccccc3o2)cc1,92,81,102,-27
N#C/C(=C\c1ccc(Cl)cc1)c1nc(-c2cc3ccccc3oc2=O)cs1,98,84,108,-33

High-throughput results (PubChem BioAssay)
